E coli growth: inhibitors of Escherichia coli growth; OD600, 23 h; stronger effect = lower value; OD600 absorbance (concentration not given with the values); 330,000 tested, 0.21% active; AID 1053175;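 active means OD600 absorbance below the run mean of sample wells minus 3.6 SD, in any replicate, cut at about 0.56 in these data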;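 further: stock transfer was 300 nL into about 60 µL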
FGF22 binding: FGF22 (human) thermal shift binding. AID 651658. Q9HCT0. 340,000 tested, 1.5% active. calls only at 9.99 µM. recombinant FGF22 thermal shift, SYPRO orange fluorescence; percent of sucrose octasulfate shift, DMSO zero;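 active means melting point raised past a set limit in the mean and every replicate; inconclusive means no clear call; three in four hits are not shown here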
Target sequence (Q9HCT0 whole entry, looked up): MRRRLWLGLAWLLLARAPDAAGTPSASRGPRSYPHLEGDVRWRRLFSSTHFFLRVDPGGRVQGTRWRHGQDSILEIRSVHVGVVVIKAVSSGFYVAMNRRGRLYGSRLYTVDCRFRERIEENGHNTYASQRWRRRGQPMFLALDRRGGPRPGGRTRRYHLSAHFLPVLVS
ALR inh: blocks human ALR sulfhydryl oxidase activity | P55789 | purified ALR, DTT oxidation, H2O2 HRP-luminol luminescence | inhibition, % (no concentration beside the values) | 290,000 tested, 3.8% active | AID 485317;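 active means mean and each replicate at 75% or more; inconclusive means only one of the two met; inactive means neither met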;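 further: stock transfer was 7.5 nL into about 7.5 µL; 0% = neutral wells and 100% = wells with inactivated enzyme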
Target sequence (P55789 whole entry, looked up): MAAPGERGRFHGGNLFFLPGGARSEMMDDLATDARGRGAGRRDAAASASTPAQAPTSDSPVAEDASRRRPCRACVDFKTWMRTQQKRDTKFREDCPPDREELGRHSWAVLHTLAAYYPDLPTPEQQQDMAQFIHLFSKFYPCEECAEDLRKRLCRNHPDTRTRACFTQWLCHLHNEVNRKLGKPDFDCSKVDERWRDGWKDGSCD
Vif A3G: HIV-1 Vif–A3G interaction blockers – biochemical, TR-FRET, GST-Vif 1-94, biotin-A3G peptide, dose response retest, primary screen (AID 1117319) | TR-FRET GST-Vif / biotin-A3G peptide binding; higher % means a stronger effect; test concentration not given here; strong numbers were not always called active | inhibition, %, or IC50 in µM where a hit was titrated | 260,000 tested, 0.57% active;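 active means above the screen mean plus three standard deviations and confirmed in dose response; inconclusive means results disagree or hit not tested in dose response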;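 further: Vif residues 1-94 fused to GST binding biotinylated APOBEC3G peptide 110-148; 0% = full assay without inhibitor and 100% = GST in place of GST-Vif; retest series ran down from 100 µM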
rRNA inh HTS: inhibitors of bacterial rRNA selective over humanized ribosomes | E. coli WT GFP vs humanized-ribosome RFP mutants, fluorescence, 24 h; stronger effect = lower value; DMSO median 0, no signal -100 | GFP signal change (wild-type ribosome), % (concentration not given with the values) | 350,000 tested, 1.6% active | AID 720706;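 active means significant combined selectivity score with lowered wild-type GFP, culture density cut under 30%, mutant RFP and density less affected; inactive means any of these conditions unmet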; further: one replicate is shown; some compounds called inactive have numbers as strong as hits
MLL AF4-AF9 inh: MLL-AF4/AF9 protein interaction inhibition. AlphaScreen, biotin-AF4 peptide binding to FLAG-AF9. inhibition, % at 10 µM. 350,000 tested, 0.47% active. AID 651704;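 active means every replicate reaching a set inhibition limit, whatever the replicate mean, cut at about 25% in these data; inconclusive means mean inhibition reaches that limit but some replicates miss it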;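 further: 0% = plate neutral control median and 100% = total signal loss; the record names both 10 and 1 µM as test concentration; the first replicate is given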
Target sequence (P42568 whole entry, looked up): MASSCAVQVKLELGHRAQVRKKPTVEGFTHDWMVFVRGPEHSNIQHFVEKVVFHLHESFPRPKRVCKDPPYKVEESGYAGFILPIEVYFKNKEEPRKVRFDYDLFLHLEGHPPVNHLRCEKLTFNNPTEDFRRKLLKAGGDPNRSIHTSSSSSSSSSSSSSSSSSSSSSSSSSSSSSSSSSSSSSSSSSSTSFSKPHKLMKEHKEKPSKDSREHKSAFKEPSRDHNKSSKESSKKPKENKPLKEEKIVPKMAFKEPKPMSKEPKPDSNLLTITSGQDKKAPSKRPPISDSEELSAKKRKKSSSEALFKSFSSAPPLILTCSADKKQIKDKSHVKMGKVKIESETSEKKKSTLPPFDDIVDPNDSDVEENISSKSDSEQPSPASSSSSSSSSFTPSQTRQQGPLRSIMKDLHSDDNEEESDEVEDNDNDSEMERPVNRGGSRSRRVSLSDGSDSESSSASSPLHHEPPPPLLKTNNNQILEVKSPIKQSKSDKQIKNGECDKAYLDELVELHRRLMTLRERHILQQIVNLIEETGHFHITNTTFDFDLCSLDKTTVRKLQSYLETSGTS
HNF4A DNA FP: change in binding of human HNF4 alpha to DNA. P41235. HNF4a-FITC DNA binding, fluorescence polarization, 1 h. activity change, % at 10 µM. 360,000 tested, 0.3% active. AID 1224865; in the data active means activity change above about 30%, passing the limit was not always enough;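 further: controls were the assay level and a saturating level of protein; the project sought stronger binding though the title names inhibitors; some compounds called inactive have numbers as strong as hits; positive values seem to mean higher polarization but the record does not say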
rRNA inh HTS OD600: also measured in rRNA inh HTS; calls as there; OD600 change, %; measured here: OD600 growth;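 optical density of the mix in the first replicate; 0 = DMSO median and -100 = no signal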
rRNA inh HTS RFP: recorded beside rRNA inh HTS, whose call it bears; RFP signal change, %; measured here: RFP humanized mutant strains;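 first replicate; 0 = DMSO median and -100 = no signal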
Active calls of the source: *; i = inactive; u = inconclusive; x = no result given.

The line under a structure holds: E coli growth, FGF22 binding, ALR inh, Vif A3G, rRNA inh HTS, rRNA inh HTS OD600, rRNA inh HTS RFP, MLL AF4-AF9 inh, HNF4A DNA FP
> CN(C(=O)CSc1nnc(NCc2ccccc2)s1)C1CCS(=O)(=O)C1 (stereo not drawn)
    0.73, i, -3.1, -11.7%, 8.8, 1.9, -2.6, -1.1, 0.3
> C[C@@H]1CN([C@@H](C)CO)C(=O)Cc2cc(NC(=O)C3CCCCC3)ccc2O[C@@H]1CN(C)C(=O)Nc1ccccc1
    x, i, x, x, 1.4, 7.7, 2.6, 0.1, x
> CC1(C)SC(=S)N(NC(=O)Nc2ccccc2)C1N(O)C(=O)Nc1cccc2ccccc12 (stereo not drawn)
    0.668, i, -32.9, x, -46.7, -73.8, -3.9, 1.0, 5.2
> C/C(=N\NC(=S)NC1CCCCC1)c1cccs1
    x, i, 16.8, -9.8%, -25.6*, -16.8*, -1.5*, 3.4, 0.7
> O=C(Nc1ccccc1N1CCCC1)C1CC(=O)N(Cc2ccccc2)C1 (stereo not drawn)
    0.626, i, 97.5*, -0.9%, -7.2, -6.5, 0.6, -1.5, -2.2
> Cc1cc(C)cc(NC(=O)CS(=O)(=O)c2ccccc2)c1
    0.666, i, -11.0, -2.8%, 4.5, 19.6, 0.5, -2.7, 2.3
> Cc1ccc(C(=O)NC(Cc2cccc(C(F)(F)F)c2)C(=O)O)cc1 (stereo not drawn)
    0.686, i, x, -0.4%, 0.1, -6.1, 2.0, 0.0, 0.8
> CCc1nc(N2CCOCC2)c(C#N)c2c1COC(C)(C)C2
    0.696, x, -18.7, -10.8%, x, x, x, x, 0.2
> Cc1ccc2[nH]c3c(NCCN4CCOCC4)ncnc3c2c1
    0.657, x, x, -3.3%, x, x, x, x, -2.3
> C=CCN(CC=C)S(=O)(=O)c1ccc2nc(NC(=O)C3CCCO3)sc2c1 (stereo not drawn)
    0.702, i, 68.9, 5.3%, x, x, x, -27.1, 1.8
> CC(C)c1cc(NC(=O)c2ccccc2)cc(C(C)C)c1O
    0.659, i, 50.2, -1.0%, -24.6, -40.4, -6.5, 1.0, 1.9
> Cc1ccc(C)c(N(CC(=O)NC2CCCC2)C(=O)CNC(=O)c2cccs2)c1
    0.696, i, -18.3, x, -1.3, 10.8, 0.7, -0.5, -1.6
> Cc1nnnn1-c1ccc(CC(=O)O)cc1
    0.67, i, -2.8, 7.8%, 24.3, 20.4, 0.7, -0.6, -3.3
> CCCNC(=O)N(C)C[C@H]1Oc2cc(Br)ccc2S(=O)(=O)N([C@H](C)CO)C[C@@H]1C
    x, i, x, x, 0.5, 18.2, -3.0, 1.1, x
> CCOc1ccc(NC(=O)C2CC(=O)N(c3ccc4c(c3)OCCO4)C2)cc1OCC (stereo not drawn)
    0.723, x, -11.9, -0.2%, 5.0, 8.2, -1.6, 1.9, 0.0
> Cn1c(SCC(=O)N2CC(=O)Nc3ccccc32)nc2ccccc2c1=O
    0.661, i, -12.4, x, -0.3, -10.2, 1.0, -0.2, -1.2
> O=C1CSC(c2cccc([N+](=O)[O-])c2)N1c1c(F)cccc1F (stereo not drawn)
    0.702, i, 15.1, -3.0%, 10.3, 4.4, 1.7, -3.4, 2.1
> COc1ccc(CN2C[C@H](O)COC[C@@H]3O[C@@H](CC(=O)NCc4ccccc4Cl)CC[C@H]32)cc1
    x, i, x, x, -5.7, -0.8, 2.1, -0.8, x
> COC(=O)c1cc(S(=O)(=O)NCc2ccc(F)cc2)cn1C
    0.741, i, -6.3, -1.9%, 3.0, 2.4, 0.9, 8.6, -2.3
> CCC(=O)Nc1ccc(S(=O)(=O)NCc2ccco2)cc1
    0.737, x, -2.8, 8.5%, 1.9, 7.2, -1.7, x, -0.9
> CC(=O)Nc1ccc(OCc2ccc(S(=O)(=O)Cc3ccccc3)cc2)cc1
    0.697, i, x, -1.8%, 10.9, 13.4, -2.2, -1.3, 6.2
> CC(C)(C)OC(=O)NCCCC[C@@H](C(=O)N1CCN(C(=O)OC(C)(C)C)CC1)n1cc(C(CO)NC(=O)OC(C)(C)C)nn1 (stereo partly drawn)
    x, i, -11.1, -7.5%, 5.7, -0.8, -7.4, 1.7, -7.1
> CSc1ncccc1C(=O)Nc1cccc(S(=O)(=O)N2CCCCCC2)c1
    0.701, i, -22.1, x, -2.5, -16.1, 3.4, 0.9, 0.2
> C[C@@H]1CN([C@H](C)CO)C(=O)Cc2cc(NC(=O)C3CC3)ccc2O[C@@H]1CN(C)CC1CCCCC1
    x, i, x, x, 4.2, 7.0, -1.3, -6.1, x
> COc1ccc2c3c(n(C)c2c1)[C@H](CO)N(C(C)=O)CC31CN(Cc2nccs2)C1
    x, i, x, x, 1.0, 5.1, -2.3, -6.9, x
> CCOC(=O)N1CCC(NC(=O)CCc2cn(C)c3ccccc23)CC1
    0.737, x, 2.5, 13.9%, x, x, x, x, 2.4
> CC(C)c1[nH]nc2c1C(c1cccc(C(F)(F)F)c1)N(Cc1ccccc1)C2=O (stereo not drawn)
    x, i, x, x, -19.2, -27.5, -11.7, -1.1, x
> COc1cccc(-c2nc(CS(=O)(=O)CC(=O)N3CCN(C)CC3)c(C)o2)c1
    0.717, i, 97.0*, 9.2%, 3.0, 10.8, -1.2, -2.1, 0.8
> CC1(c2nnc(-c3ccc(F)cc3)o2)CC(c2ccc(Cl)cc2)=NO1 (stereo not drawn)
    0.705, x, -3.1, 2.5%, x, x, x, x, 2.2
> O=C(NCC1CCCO1)c1cccc(S(=O)(=O)Nc2cccc(C(F)(F)F)c2)c1 (stereo not drawn)
    0.674, i, -14.3, -5.2%, 2.2, -16.9, -3.7, -2.0, 4.9
> Cc1ccsc1/C=N/N1CCN(C2c3ccccc3-c3ccccc32)CC1
    x, x, -1.5, 11.1%, x, x, x, x, 1.2
> C/C=C/c1ccc(OCCCN2C(=O)NC(C)(C)C2=O)c(OC)c1
    0.714, x, -15.4, 1.9%, x, x, x, x, 1.4
> C[C@H](O)C#Cc1ccc2c(c1)O[C@H](CN(C)Cc1ccccc1)[C@@H](C)CN([C@H](C)CO)S2(=O)=O
    x, i, x, x, -9.5, -29.0, 11.7, 4.5, x
> COc1ccc(-c2nnn(CC(=O)N(C3CCCCC3)C(C)C(=O)NC3CCCC3)n2)cc1OC (stereo not drawn)
    0.749, x, -14.7, 25.6%, x, x, x, x, 4.8
> CC(C)CNC(=O)/C(C#N)=C1\N=C(NC(=O)c2ccco2)c2ccccc21
    0.683, i, -2.5, 0.4%, -12.1, -6.1, 1.9, 0.0, 3.7
> Cc1onc(-c2ccccc2Cl)c1C(=O)N1CCN=C1SCc1cccnc1
    0.687, x, 98.6*, 12.1%, x, x, x, x, -0.9
> Cc1cccc(OCC(=O)N/N=C/c2ccc3c(c2)OCO3)c1
    x, i, -10.7, -6.1%, 20.2, 19.6, -0.5, -0.9, 4.7
> CCOC(=O)Cc1csc2nc(-c3ccccc3)nn12
    0.663, i, 3.3, x, 4.7, 5.7, -1.5, -1.8, -4.0
> C[C@H](CO)N1C[C@H](C)[C@@H](CN(C)CC2CC2)Oc2ccc(NS(=O)(=O)c3ccc(Cl)cc3)cc2C1=O
    x, i, x, x, -1.4, 4.2, -1.2, 1.1, x
> N#CC(C(=O)O)=C1CCCC1
    0.752, x, -3.7, -0.3%, x, x, x, x, 2.0
> Oc1c(C=C2N=c3ccccc3=N2)sc(=S)n1-c1ccccc1
    0.702, i, x, x, -3.3, 11.6, 17.1, 2.7, 24.4
> Cn1c(COc2ccc(Br)cc2)nnc1SC1CCc2ccccc2C1=O (stereo not drawn)
    0.697, x, -18.3, u, x, x, x, x, -1.9
> CSc1ccc(Cn2c(C)c(C(=O)NCc3cccc(C(F)(F)F)c3)sc2=O)cc1
    x, i, x, x, 7.3, -4.0, -4.2, 0.8, -2.4
> COc1ccc(CNC(=O)[C@@H](NC(=O)C2CCN(C(=O)[C@@H](N)CC(C)C)CC2)C(C)C)cc1
    0.746, i, x, x, x, x, x, -1.6, 3.4
> CCOc1ccc(C2N(c3ccc(F)cc3)C(=O)C3CCCN32)cc1OC (stereo not drawn)
    0.771, x, -54.5, 1.0%, 10.1, 15.9, -0.9, -4.0, 0.9
> COC(=O)C(C)NC(=O)c1cn(-c2ccccc2OC)c(=O)c2ccccc12 (stereo not drawn)
    0.679, i, -4.2, 0.9%, 1.3, 1.5, 0.9, 1.1, -1.8
> COc1ccc(N2C(=O)CC(N3CCN(c4ccc(Cl)cc4)CC3)C2=O)cc1 (stereo not drawn)
    0.66, i, 0.9, 0.2%, -1.6, 5.5, -0.4, -1.8, 1.0
> Cc1nc2ccccc2n1C1CC(=O)N(Cc2ccccc2)C1=O (stereo not drawn)
    0.705, x, -4.1, 13.5%, x, x, x, x, 1.1
> COc1ccc(CCn2c(=N)c(C(=O)NC3CCCCC3)cc3c(=O)n4ccccc4nc32)cc1
    x, i, -0.2, x, -4.7, 11.1, -4.1, -0.6, -1.4
> Cc1ccc(SCCC(=O)Nc2ccccc2C(=O)N2CCOCC2)cc1
    0.691, x, -10.6, 3.1%, x, x, x, x, -1.8

Remaining list, next part.
The line under a structure holds: E coli growth, FGF22 binding, ALR inh, Vif A3G, rRNA inh HTS, rRNA inh HTS OD600, rRNA inh HTS RFP, MLL AF4-AF9 inh, HNF4A DNA FP
> Cc1cccc(C(=O)N2CCCC(c3nc(-c4ccc(F)cc4)no3)C2)c1 (stereo not drawn)
    0.631, i, -5.8, x, -43.9, -44.7, -10.5, 0.7, 0.5
> CC(C)NC(=O)C1CCN(C2CCN(C(=O)c3ccc4cccc(F)c4n3)CC2)CC1
    0.712, i, -0.3, 8.9%, 9.6, 0.4, 4.2, -13.5, -0.9
> COc1cc(C(=O)CSc2nncn2C)cc(OC)c1OC
    0.751, x, 54.1, 14.4%, x, x, x, x, -0.2
> COCC#Cc1cnc2c(c1)C(=O)N([C@H](C)CO)C[C@@H](C)[C@H](CN(C)C(=O)c1ccc(F)cc1)O2
    x, i, x, x, 1.6, 8.0, -2.3, -3.6, x
> Cc1cccc(C(=O)NNC(=O)c2ccco2)c1O
    0.665, i, 30.6, 8.7%, 8.3, 1.6, -0.7, -0.3, 1.8
> C[C@@H]1CCCCO[C@H](CN(C)S(=O)(=O)c2cccs2)[C@@H](C)CN([C@@H](C)CO)C(=O)c2cc(NS(=O)(=O)c3ccc(Cl)cc3)ccc2O1
    x, i, x, x, 1.1, 2.6, 0.6, -0.5, x
> Cc1ccc2oc(Nc3nc(C)c(C)c(C)n3)nc2c1
    0.635, i, -1.4, -4.4%, 25.3, 3.5, 0.0, x, 5.2
> CNC[C@@H]1Oc2ncc(C#Cc3cccc(OC)c3)cc2C(=O)N([C@@H](C)CO)C[C@@H]1C
    x, i, x, x, 2.4, 9.7, -3.7, 9.6, x
> NC(=O)c1ccc(NC(=O)COC(=O)CCCOc2ccccc2)cc1
    0.691, x, x, -7.0%, 0.0, 1.4, -1.1, 0.1, -1.8
> Cc1ccccc1NS(=O)(=O)c1cc(C(=O)NCCSC2CCCCC2)ccc1C
    0.697, i, -3.1, 4.2%, -18.7, -24.2, 13.5, -1.2, 2.1
> CC1CCN(CCCNC(=O)c2ccc3c(Cl)c4c(nc3c2)CCCC4)CC1
    0.68, i, 90.0*, 0.4%, -7.4, -11.3, 29.1, 10.9, -0.2
> C[C@@H]1CN([C@H](C)CO)C(=O)c2cc(NC(=O)C3CCCCC3)ccc2O[C@@H]1CN(C)CC1CCCCC1
    x, i, x, x, 0.1, 6.0, 0.3, -1.0, x

Screening data (PubChem BioAssay)

The list is partial; count on the stated rates, not on these rows.
